GIRK2 act: GIRK2 channel activation. HEK293-GIRK2 thallium flux, Thallos fluorescence. calls only for hits at 25 µM. actives 0.05% (n = 63,000). AID 1259325;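 active means among the strongest 0.2% of first-round signals and kept after retests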;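 further: first round at about 10 µM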
Target sequence (P48051 whole entry, looked up): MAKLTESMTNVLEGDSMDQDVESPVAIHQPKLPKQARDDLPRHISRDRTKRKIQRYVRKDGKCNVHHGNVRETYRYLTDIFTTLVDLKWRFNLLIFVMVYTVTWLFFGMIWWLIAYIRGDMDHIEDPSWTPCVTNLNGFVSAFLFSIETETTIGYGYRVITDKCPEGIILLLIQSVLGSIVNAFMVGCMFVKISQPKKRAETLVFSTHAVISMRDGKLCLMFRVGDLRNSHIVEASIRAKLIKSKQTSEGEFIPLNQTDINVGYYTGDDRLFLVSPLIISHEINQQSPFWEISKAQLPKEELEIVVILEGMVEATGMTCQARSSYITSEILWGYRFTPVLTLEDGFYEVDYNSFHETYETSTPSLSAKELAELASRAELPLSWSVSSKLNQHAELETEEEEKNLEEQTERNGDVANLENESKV
Calls only; i = inactive. A portion of the library. The share of hits here may be higher or lower than overall.

GIRK2 act,structure
i,CC(=O)c1cccc(NC(=O)Cn2cccc(-c3nc(-c4ccc(Cl)cc4)no3)c2=O)c1
i,COc1cc(C)c(C)cc1S(=O)(=O)NCCn1nc(-c2ccccc2)ccc1=O
i,C[C@]1(O)CC[C@@H]2C(C(=O)O)=CO[C@@H](O[C@@H]3O[C@H](CO)[C@@H](O)[C@H](O)[C@H]3O)[C@@H]21
i,O=C(Nc1ccc2sccc2c1)C1CCN(S(=O)(=O)c2ccc(F)cc2)CC1
i,COc1ccccc1CNC(=O)CC1CCCCN1S(=O)(=O)c1ccc(C)cc1 (stereo not given)
i,O=C(CSCc1ccccc1)NCC1(O)CCOc2ccccc21 (stereo not given)
i,COc1ccc(OCc2noc(CNC(=O)COc3cccc(C)c3)n2)cc1
i,COC(=O)c1sccc1NC(=O)Cn1cc(-c2nc(-c3ccc(OC)cc3)no2)ccc1=O
i,CC(C)N1CCC(CNC(=O)Cc2cccc3ccccc23)CC1
i,CCc1ccc(Oc2cc(N3CCC(C(=O)N4CCC5(CC4)OCCO5)CC3)ncn2)cc1
i,COC(=O)N1CCC(CNC(=O)Nc2ccc(Cl)c(Cl)c2)CC1
i,O=C1/C(=C/c2cc(O)c(O)c(O)c2)Oc2cc(O)cc(O)c21
i,O=C(CSC1CCCC1)N1CCN(c2cc(-c3ccccc3)ncn2)CC1
i,CSc1ccc(-c2noc(Cc3nnc(-c4ccc(C)c(C)c4)o3)n2)cc1
i,Cc1ccc(Cn2c(N3CCC(C)CC3)nc3c2c(=O)[nH]c(=O)n3C)cc1
i,CCOCC(=O)NCCOc1ccc2nnc(-c3ccc(F)cc3)n2n1
i,CC(O)(CNC(=O)c1cc2ccccc2oc1=O)c1ccco1 (stereo not given)
i,C=C(C)Cn1c(=O)c2c(nc3n(-c4ccc(S(N)(=O)=O)cc4)c(C)cn23)n(C)c1=O
i,CCc1c(C)nc(-n2nc(C)cc2NC(=O)Nc2cccc(OC)c2)[nH]c1=O
i,Cc1ccccc1-c1csc2c(=O)[nH]c(N3CCCC(C(=O)NC4CCC(C)CC4)C3)nc12 (stereo not given)
i,O=C(c1cc2ccccc2oc1=O)N1CCC2(CC1)OCCS2
i,CC(NC(=O)C1CCN(c2ncccc2S(=O)(=O)N2CCCCC2)CC1)c1ccc(F)cc1 (stereo not given)
i,Cc1ccc(CNC(=O)C2CCN(c3nnc(N4CCCCC4)c4ccccc34)CC2)cc1
i,COC(=O)CC(C(=O)Nc1ccc(C)cc1Br)N1CCN(C)CC1 (stereo not given)
i,CC(=O)Cc1nsc(NC(=O)c2ccoc2COc2ccccc2)n1

Next section:
GIRK2 act,structure
i,CCc1ccccc1NC(=O)Cn1nc(-c2cccs2)c2sc(N3CCOCC3)nc2c1=O
i,CN1CCN(S(=O)(=O)c2ccc(C(=O)Nc3ccccc3Cl)o2)CC1
i,CCCNC(=O)C1CCC(Cn2c(=O)c3sccc3n(CC(=O)Nc3cccc(C)c3)c2=O)CC1 (stereo not given)
i,COCCOC(=O)c1c(C)n(C)c2ccc(OC(C)C(=O)OC)cc12 (stereo not given)
i,O=C(c1cc(-c2ccco2)on1)N1CCOC(c2cc(Cl)cc(Cl)c2)C1 (stereo not given)
i,O=C(NCC1CCN(C(=O)c2ccoc2)CC1)C(=O)Nc1cc(F)ccc1F
i,COc1cccc2cc(C(=O)NC(C)Cc3c[nH]c4ccccc34)oc12 (stereo not given)
i,Cc1cccc(S(=O)(=O)Nc2ccc3c(c2)CCCN3S(=O)(=O)c2ccccc2)c1
i,Nc1nc(Nc2ccc(F)cc2F)ncc1[N+](=O)[O-]
i,CCS(=O)(=O)Nc1ccc(C2=NN(C(=O)c3ccco3)C(c3ccc(Cl)o3)C2)cc1 (stereo not given)
i,O=C(CCSc1ccccc1)NCCC(O)C1CC1 (stereo not given)
i,CC(C)(C)n1nc(-c2ccc(Cl)cc2)c2c(N)ncnc21
i,CCOC(=O)c1ccc(NC(=O)COc2ccc3c(c2)C(=O)CC3)cc1
i,Cc1cn2c3c(=O)n(CCN4CCCCC4)c(=O)n(C)c3nc2n1CCN1CCCCC1
i,O=c1c(Oc2ccccc2Br)c(C(F)(F)F)oc2cc(O)ccc12
i,O=C(CCC1=NNC2C3CC(c4ccc(Cl)cc4)NN3C=CN12)N1CCN(c2ccccn2)CC1 (stereo not given)
i,Cc1ccc(Nc2c(F)cccc2F)c(CC(=O)O)c1
i,O=C(c1cnn2ccccc12)N1CCN(C(=O)C2CC2)CC1
i,Fc1ccc(-c2cc(-c3cn[nH]c3-c3ccccn3)ccn2)cc1
i,CCc1ccc(NC(=O)Cn2cc(S(=O)(=O)N3CCCC3)ccc2=O)cc1
i,Cc1ccc2c(c1)N(C)C(=O)c1cc(NC(=O)/C=C/c3ccco3)ccc1O2
i,C#CCCNC(=O)CSC1CCCC1
i,O=C(c1cnn(-c2ccccc2)n1)N1CCC(Cn2c(C(F)(F)F)nc3ccccc32)CC1
i,CCc1ccc2nc(N3C(=O)C(O)=C(C(=O)c4cccs4)C3c3ccco3)sc2c1 (stereo not given)
i,CC(=O)c1cccc(S(=O)(=O)N2CCC(CSc3ccccn3)CC2)c1

Following part
GIRK2 act,structure
i,COC(=O)c1scc(-c2ccc(C)cc2)c1S(=O)(=O)Nc1cccc(C)c1C
i,CCNC(=O)N1CCC(COCc2cc(OC)cc(OC)c2)CC1
i,Cc1cccc(S(=O)(=O)Nc2ccc3c(c2)CCCN3C(=O)c2ccccc2)c1
i,Cc1cc(NC(=O)c2ccccc2Cl)n(-c2nc(-c3ccc(F)cc3)cs2)n1
i,O=C1CCC(C(=O)N2CCN(c3cc(Nc4ccccn4)ncn3)CC2)N1 (stereo not given)
i,COc1ccc(C(=O)NCCC(c2ccccc2)c2ccccc2)nn1
i,O=C(Nc1cccs1)Nc1ccccc1NC(=O)c1ccccc1C(F)(F)F
i,O=C(Nc1nnc(C2CC(=O)N(c3ccccc3)C2)o1)c1ccc2nsnc2c1 (stereo not given)
i,CCCS(=O)(=O)N1CCN=C1SCc1ccc(Cl)c(Cl)c1
i,O=C(O)CC1=CCc2ccc(F)cc21
i,CCCCC1C(=O)CC[C@@H]2C(CCCCCCC(=O)O)C(=O)C[C@H]12 (stereo not given in full)
i,O=C(Nc1nc2c(s1)CN(C(=O)/C=C/c1cccs1)CC2)c1ccco1
i,COc1ccc(-n2c(=O)c3ccccc3n(CC(=O)N3CCC(C)CC3)c2=O)cc1
i,COCCNC(=O)Cc1ccc(NC(=O)C2CCN(S(C)(=O)=O)CC2)cc1
i,Cn1nc(C2CCN(C(=O)c3cnccn3)CC2)n(-c2ccccc2)c1=O
i,CCOC(=O)C1CCc2sc(NC(=O)c3cn(C)nn3)nc21 (stereo not given)
i,COc1cccc(NC(=O)NCCC(O)c2ccccc2)c1OC (stereo not given)
i,COC(=O)c1ccc(NC(=O)c2nc(S(C)(=O)=O)ncc2Cl)cc1
i,COc1nn(C)cc1C(=O)NCCC(O)c1cccc2ccccc12 (stereo not given)
i,O=C(NCc1ccc2c(c1)OCO2)C(=O)Nc1ccc(N2CCCS2(=O)=O)cc1
i,Cc1c(C(=O)NCCSc2nncn2C)nnn1-c1nccs1
i,Cc1ccc(NCCNS(=O)(=O)c2ccccc2Cl)nn1
i,Cc1cc(C)n(CCNC(=O)C2CCN(C(=O)NCc3cccs3)CC2)n1
i,CCOc1ccc(-c2csc3c(=O)n(Cc4ccc(N5CCCC5=O)cc4)cnc23)cc1OCC
i,CS(=O)(=O)c1ccc2nc(N3CCN(c4ccc(F)cc4)CC3)sc2c1

Some of the entries so far, tab-delimited.
Compound	GIRK2 act
Cc1cc(NC(=O)c2ccccc2Cl)n(-c2nc(-c3ccc(F)cc3)cs2)n1	i
O=C1CCC(C(=O)N2CCN(c3cc(Nc4ccccn4)ncn3)CC2)N1 (stereo not given)	i
COc1ccc(C(=O)NCCC(c2ccccc2)c2ccccc2)nn1	i
O=C(Nc1cccs1)Nc1ccccc1NC(=O)c1ccccc1C(F)(F)F	i
O=C(Nc1nnc(C2CC(=O)N(c3ccccc3)C2)o1)c1ccc2nsnc2c1 (stereo not given)	i
CCCS(=O)(=O)N1CCN=C1SCc1ccc(Cl)c(Cl)c1	i
O=C(O)CC1=CCc2ccc(F)cc21	i
CCCCC1C(=O)CC[C@@H]2C(CCCCCCC(=O)O)C(=O)C[C@H]12 (stereo not given in full)	i
O=C(Nc1nc2c(s1)CN(C(=O)/C=C/c1cccs1)CC2)c1ccco1	i
COc1ccc(-n2c(=O)c3ccccc3n(CC(=O)N3CCC(C)CC3)c2=O)cc1	i
COCCNC(=O)Cc1ccc(NC(=O)C2CCN(S(C)(=O)=O)CC2)cc1	i
Cn1nc(C2CCN(C(=O)c3cnccn3)CC2)n(-c2ccccc2)c1=O	i
CCOC(=O)C1CCc2sc(NC(=O)c3cn(C)nn3)nc21 (stereo not given)	i
COc1cccc(NC(=O)NCCC(O)c2ccccc2)c1OC (stereo not given)	i
COC(=O)c1ccc(NC(=O)c2nc(S(C)(=O)=O)ncc2Cl)cc1	i
COc1nn(C)cc1C(=O)NCCC(O)c1cccc2ccccc12 (stereo not given)	i
O=C(NCc1ccc2c(c1)OCO2)C(=O)Nc1ccc(N2CCCS2(=O)=O)cc1	i
Cc1c(C(=O)NCCSc2nncn2C)nnn1-c1nccs1	i
Cc1ccc(NCCNS(=O)(=O)c2ccccc2Cl)nn1	i
Cc1cc(C)n(CCNC(=O)C2CCN(C(=O)NCc3cccs3)CC2)n1	i

Next section
GIRK2 act,structure
i,CCOc1cc(C(=O)Nc2ccc(C)c(N3CCCC3=O)c2)cc(OCC)c1OCC
i,O=C(/C=C/c1ccc2c(c1)OCO2)N1CC(c2nc(-c3cccc(C(F)(F)F)c3)no2)C1
i,Cc1ccccc1-n1c(-c2cccc([N+](=O)[O-])c2)cnc1SCC(=O)N1CCCC1
i,COc1cccc(CNC(=O)c2sc(Nc3cccc(C)n3)nc2C)c1
i,CCOC(=O)Cc1csc(NC(=O)CN2CC(c3nc(C4CC4)no3)C2)n1
i,COc1cc(OC)cc(C(=O)NCCNc2cc(-n3cccc3)nc(C)n2)c1
i,COc1ccccc1NC(=O)Cn1nc(-c2ccccc2)c2sc(N3CCCC3)nc2c1=O
i,O=C(Nc1ccccc1Br)c1nnn(-c2ccccc2)c1-c1ccccn1
i,COc1nn(C)cc1C(=O)Nc1nnc(SCC(=O)NCc2ccc(F)cc2)s1
i,COc1ccccc1-n1c(C)cn2c3c(=O)n(Cc4ccc(F)cc4)c(=O)n(C)c3nc12
i,COCCn1c(=O)c2c(nc3n2CCCN3c2ccc(OC)cc2)n(C)c1=O
i,Cc1cc(C(=O)N2CCN(CC(F)(F)F)CC2)no1
i,CSc1ccc(NC(=O)c2ccc(S(=O)(=O)N(C)Cc3ccccc3)cc2)cc1
i,O=C(NCC#CCN1CCOCC1)c1ccc2[nH]ccc2c1
i,COc1ccc2oc(C(=O)Nc3ccccc3Cl)cc(=O)c2c1
i,COc1ccc(-c2nnc(SCC(=O)Nc3ccc(C)c(C)c3)n2N)cc1OC
i,O=C(Cn1c(=O)c(-c2ccccc2)nc2ccccc21)NCCC1=CCCCC1
i,CC1CCN(S(=O)(=O)c2ccc(Cl)s2)CC1
i,COc1ccccc1CNC(=O)CC1CCCCN1S(=O)(=O)c1ccc(Cl)cc1 (stereo not given)
i,COc1cc(NC(=O)Nc2cnc(N3CCCC3)nc2)cc(OC)c1
i,CCCNC(=O)C(=O)NCCC1CCCCN1S(=O)(=O)c1cc(C)ccc1C (stereo not given)
i,COCC1CCCN(CC(=O)Nc2ccc(C)c(C)c2)C1 (stereo not given)
i,CS(=O)(=O)Oc1ccc2c(c1)O/C(=C\c1ccc(Cl)cc1)C2=O
i,Cc1cc(C)c2nc(C)cc(NC(=O)c3ccc(Br)o3)c2c1
i,O=C(CN1C(=O)c2ccccc2C1=O)NCC1(c2cccs2)CCCCC1

Random excerpt: two entries already listed, in no set order.
GIRK2 act,structure
i,COCC1CCCN(CC(=O)Nc2ccc(C)c(C)c2)C1 (stereo not given)
i,Cc1ccccc1-n1c(-c2cccc([N+](=O)[O-])c2)cnc1SCC(=O)N1CCCC1

Remaining list, next part.
GIRK2 act,structure
i,COc1cccc(CNC(=O)COc2nc(C)nc3ccccc23)c1OC
i,CC(C)n1ccc(C(=O)NCc2ccc(OCc3ccccc3)cc2)n1
i,CCC(C(=O)Nc1cc(F)ccc1F)n1cccc(-c2nc(C3CC3)no2)c1=O (stereo not given)
i,COc1ccc(F)cc1S(=O)(=O)NCCc1nc(-c2cccs2)cn1C
i,COCCn1c(=O)c2c(nc3n2CCCN3c2ccc(C)c(Cl)c2)n(C)c1=O
i,Cn1c(=O)c2sccc2n2c(CCC(=O)N3CCN(c4ccc(F)cc4)CC3)nnc12
i,O=C(NCC1(O)CCc2ccccc2C1)c1cc2ccccc2o1 (stereo not given)
i,COc1ccc(Cl)cc1NC(=O)C1CSCCC(=O)N1 (stereo not given)
i,O=C(COc1ccc(-n2cccn2)nn1)NC1CCCCC1
i,COc1ccc(-c2ccc(S(=O)(=O)NCc3ccc(C(=O)O)cc3)cc2)cc1
i,O=c1cccnn1CCNS(=O)(=O)c1cc(Cl)c(Cl)cc1Cl
i,CCC(=O)Nc1sc2c(c1-c1nc3ccccc3s1)CCCC2
i,O=C(NCC1CCN(C(=O)c2ccoc2)CC1)c1ccccc1C(F)(F)F
i,Cc1ccc(NC(=O)c2ccc(S(=O)(=O)N(C)C)cc2)c(C)c1
i,O=c1cccnn1CCNS(=O)(=O)c1ccc2c(c1)OCCO2
i,COCCn1c(N2CCN(Cc3cccc(C)c3)CC2)nc2c1c(=O)[nH]c(=O)n2C
i,O=C(c1cc(-c2ccccc2)n[nH]1)N1CCC(COCc2ccccc2)CC1
i,Cc1cc(C)cc(NC(=O)CSc2cc(-c3nc(C4CC4)no3)ccn2)c1
i,CSc1nc(C)cc(OCNC(=O)c2ccc(Cl)cc2)n1
i,COc1ccc(CCNC(=O)c2cccc(NS(=O)(=O)c3ccccc3F)c2)cc1OC
i,CN(C)CC1CSCCCN1C(=O)/C=C/c1ccc2c(c1)OCO2 (stereo not given)
i,CCOc1ccc(NC(=O)Nc2ccc3c(c2)C(=O)NCC3)cc1
i,Cc1cc(C)c2c(CN3CC(C)OC(C)C3)cc(=O)oc2c1C (stereo not given)
